VACV Venus inh – qHTS for Stage-Specific Inhibitors of Vaccinia Orthopoxvirus: Venus Reporter Primary qHTS. Vaccinia virus Venus reporter expression, fluorescence. AID 720580, 2013. hit rate 0.46% among 330,000. Potency, µM (top dose mostly 36.5 µM), without a hit: top-dose activity change, negative = inhibition, actives largely listed as inhibitors; active means well fitted inhibition curve with a large enough effect; inconclusive means small, poorly fitted or top-dose-only effect; inactive means no such curve, though single readings can be large or run the other way; tested in A549 cells; further: nearly all actives have a fitted effect of over 30% in size; inactives centre near -10
Vaccinia mCherry – qHTS for Stage-Specific Inhibitors of Vaccinia Orthopoxvirus: mCherry Reporter Primary qHTS; Vaccinia virus mCherry reporter infection, fluorescence; about a quarter of the inactives have no number; Potency, µM (doses to about 36.5 µM), inactives show at the highest dose activity change, negative = inhibition, hits mostly inhibitors; hit rate 0.63% among 310,000; AID 720579, 2013; active = well fitted inhibition curve with a large enough effect; inconclusive = small, poorly fitted or top-dose-only effect; inactive = no such curve, though single readings can be large or run the other way; tested in A549 cells; further: nearly all actives have a fitted effect of over 35% in size; inactives centre near -10
An asterisk follows results filed as active; i = inactive; ? = inconclusive; · = no result given. On the % scale 0 is the no-effect control and ±100 the full control effect; potency means the concentration at half of the fitted maximal effect.

SMILES | VACV Venus inh | Vaccinia mCherry
CC(C)NC(=O)c1c(CSc2ccc(Cl)cc2)noc1C(=O)NCc1ccccc1 | -10% | -19%
Nc1nc(NCCCN2CCOCC2)nc(Nc2cccc(Cl)c2)c1[N+](=O)[O-] | -17% | -16%
Cc1ccc(N2CC(C(=O)OCC(=O)Nc3cccc(Cl)c3C)CC2=O)cc1 (centres undefined) | 1% | -12%
Cc1ccc(NC(=O)CCCn2c(=O)c3cccn3c3ccccc32)c(C)c1 | -13% | -17%
CCCc1cc(=O)[nH]c(N/N=C/C=C\c2ccccc2)n1 | 2% | -5%
CSc1cccc(NC(=O)CCCOc2cc(=O)n(C)c3ccccc23)c1 | -14% | i
O=S(=O)(c1cccs1)N1CCN(c2ccccc2Cl)CC1 | -7% | -15%
CSCCC(NC(=O)c1ccccc1)C(=O)N1CC=C(c2ccccc2)CC1 (centres undefined) | -18% | -4%
CNC(=O)COC(=O)/C=C/c1cn(-c2ccccc2)nc1-c1ccc(C)o1 | -17% | 0%
Cc1ccsc1CNCc1cc(Cl)ccc1O | -25% | -10%
O=c1[nH]c(=O)c2[nH]c(=O)n(-c3ccccc3)c2[nH]1 | -22% | -18%
CCCNC(=O)CN1C(=O)NC(CC)(c2ccc(F)cc2)C1=O (centres undefined) | 0% | -13%
Cc1cccc(S(=O)(=O)Nc2nc3ccccc3nc2NCc2ccco2)c1 | -6% | -6%
CCOC(=O)CON1C(=O)c2ccccc2C1=O | -7% | -15%
O=C(NCc1ccccc1)C1c2ccccc2OCC(=O)N1C1CC1 (centres undefined) | -1% | 13%
COc1ccc(OC)c(-c2csc(NC(=O)CSc3nnnn3C)n2)c1 | -6% | -13%
OC1(c2nc3ccccc3[nH]2)CCCCC1 | -7% | i
Cc1oncc1C(=O)NC(C)C | -4% | -6%
CC(=O)Nc1ccc(NC(=O)CN2CCN(c3ccccn3)CC2)cc1 | -11% | -14%
O=C(CCNc1ccc(Cc2ccncc2)cc1)c1ccc([N+](=O)[O-])cc1 | -13% | ?
COC(=O)N/N=C/c1sc(N2CCCCC2)nc1-c1cccs1 | -16% | -3%
Cn1c(=O)oc2cc(S(=O)(=O)Nc3cccc4c3CCCC4)ccc21 | -6% | -23%
NC(=O)Nn1c(CCC(=O)O)ccc1-c1ccc(Cl)cc1 | -18% | i
O=C(O)c1ccc(N2CCCC2=O)cc1 | -16% | i
COC(=O)CSc1nc2cc3c(cc2cc1C)OCO3 | -22% | -3%
CCOC(=O)C1=C(N)Oc2cc(O)ccc2C1c1ccc([N+](=O)[O-])cc1 (centres undefined) | -12% | -11%
CCc1ccccc1N(C(=O)c1snc(C(N)=O)c1N)C(C(=O)NCC1CCCO1)c1c[nH]c2ccccc12 (centres undefined) | -7% | ?
COc1ccc(S(=O)(=O)N2CCc3ccccc32)cc1C(=O)N1CCC(C)CC1 | 2% | -19%
CCc1nnc(NC(=O)CCS(=O)(=O)Cc2ccccc2)s1 | 0% | 7%
CCC(c1nnnn1-c1ccc2c(c1)OCCO2)N1CCN(c2ncccn2)CC1 (centres undefined) | -6% | 12%
CCOC(=O)C1CCCN(C(=O)c2ccc(C(F)(F)F)nc2C)CC1 (centres undefined) | -5% | 7%
O=C1/C(=C/c2ccc(O)cc2)SC(=S)N1Cc1cccnc1 | 1% | i
COC(=O)C1CSC(C(=O)OC)N1C(=O)Nc1ccccc1 (centres undefined) | -13% | -13%
CCCN1CNc2c(c(=O)[nH]c(=S)n2CCc2ccc(Cl)cc2)C1 | -12% | i
COc1ccc(CCn2c(C)c(C(C)=O)c(C(C)=O)c2C)cc1OC | -14% | -12%
O=C(/C=C/c1cn(-c2ccccc2)nc1-c1ccc2c(c1)OCCO2)NCCCN1CCOCC1 | -30% | i
CC(C)(C)c1ccc(C(=O)N2CCNC(=O)C2CC(=O)Nc2ccc(F)cc2)cc1 (centres undefined) | -20% | -23%
O=C(Nc1cccc(C(F)(F)F)c1)Nc1nnc([C@@H]2C[C@H](O)[C@@H](CO)O2)s1 | -6% | -5%
CC(Sc1ccc(Cl)cc1)C(=O)NCc1cccnc1 (centres undefined) | 2% | ·
CC(/C=N/NC(=O)Cc1cccs1)=C\c1ccccc1 | -17% | i
CC1CC(C)CN(CCOCCSc2ccccc2)C1 (centres undefined) | -18% | -3%
Cc1ccc(F)cc1NC(=O)CCNC(=O)c1ccc([N+](=O)[O-])cc1 | 4% | -12%
C=CCSc1nc(-c2ccc3c(c2)OCO3)cc(C(F)(F)F)c1C#N | -3% | -15%
C#CC(=O)CC1(CN(Cc2ccccc2)C(=O)OC(C)(C)C)CCCCC1 | 0% | -2%
CCOc1cc(/C=N\NC(=O)c2ccc(C)nc2)cc([N+](=O)[O-])c1O | -4% | i

The final 3 compounds of the section above come first, to join the parts.
SMILES | VACV Venus inh | Vaccinia mCherry
C=CCSc1nc(-c2ccc3c(c2)OCO3)cc(C(F)(F)F)c1C#N | -3% | -15%
C#CC(=O)CC1(CN(Cc2ccccc2)C(=O)OC(C)(C)C)CCCCC1 | 0% | -2%
CCOc1cc(/C=N\NC(=O)c2ccc(C)nc2)cc([N+](=O)[O-])c1O | -4% | i
O=C(CC12CC3CC(CC(C3)C1)C2)NCc1ccncc1 | -15% | -15%
Fc1cccc(C2NCCc3[nH]cnc32)c1 (centres undefined) | 1% | -9%
CCCCNc1nc(N)nc(-c2cc(Cl)ccc2O)n1 | 20µM* | ?
CCCCOc1ccc(C(=O)N(Cc2ccc(C(C)C)cc2)C2CCS(=O)(=O)C2)cc1 (centres undefined) | -16% | -12%
COc1cc(C(=O)NCC(c2ccc3c(c2)OCO3)N2CCOCC2)cc(OC)c1OC (centres undefined) | -6% | -1%
CC12C(=O)N(NC(=O)c3ccncc3)C(=O)C1C1C=CC2C1 (centres undefined) | -11% | i
O=S1(=O)N[C@H](Cc2ccccc2)COc2cc(N3CCC[C@@H]3CO)ccc21 | -11% | -6%
Cc1nc(NCC2CCCO2)c2nnn(Cc3c(F)cccc3Cl)c2n1 (centres undefined) | -7% | -13%
O=C(CSc1nnnn1-c1ccccc1)CC(=O)Nc1ccc(Cl)cc1 | -29% | ·
COc1cccc(C(=O)NN=C2CCCC2)c1 | -25% | -9%
O=S(=O)(Nc1cccc(-c2ccc(N3CCOCC3)nn2)c1)c1cc(C(F)(F)F)ccc1Cl | 0% | 10%
CNC(=O)c1ccsc1NC(=O)c1coc2ccccc2c1=O | ? | -13%
COc1ccc(NC(=O)/C=N/O)cc1 | -17% | 0%
C[C@@H]1CN([C@H](C)CO)C(=O)c2c(c3ccccc3n2C)-c2ccccc2CO[C@@H]1CN(C)C(=O)Nc1ccc2c(c1)OCO2 | -20% | -19%
O=C(NCc1ccccc1)c1cc2sccc2n1Cc1ccc(F)cc1 | 5% | -16%

Look-ups from the entries so far:
In VACV Venus inh, COc1cccc(C(=O)NN=C2CCCC2)c1 is entered as -25%
In VACV Venus inh, CCCCOc1ccc(C(=O)N(Cc2ccc(C(C)C)cc2)C2CCS(=O)(=O)C2)cc1 (centres undefined) is entered as -16%
In Vaccinia mCherry, Cc1nc(NCC2CCCO2)c2nnn(Cc3c(F)cccc3Cl)c2n1 (centres undefined) is entered as -13%
In VACV Venus inh, CCCCNc1nc(N)nc(-c2cc(Cl)ccc2O)n1 is entered as 20µM*
In Vaccinia mCherry, O=S1(=O)N[C@H](Cc2ccccc2)COc2cc(N3CCC[C@@H]3CO)ccc21 is entered as -6%
In Vaccinia mCherry, O=C(CC12CC3CC(CC(C3)C1)C2)NCc1ccncc1 is entered as -15%

Rewritten in markdown: 5 of the compounds above
| canonical_smiles | VACV Venus inh | Vaccinia mCherry |
| --- | --- | --- |
| O=C(CSc1nnnn1-c1ccccc1)CC(=O)Nc1ccc(Cl)cc1 | -29% | · |
| COc1cccc(C(=O)NN=C2CCCC2)c1 | -25% | -9% |
| C[C@@H]1CN([C@H](C)CO)C(=O)c2c(c3ccccc3n2C)-c2ccccc2CO[C@@H]1CN(C)C(=O)Nc1ccc2c(c1)OCO2 | -20% | -19% |
| CCCCOc1ccc(C(=O)N(Cc2ccc(C(C)C)cc2)C2CCS(=O)(=O)C2)cc1 (centres undefined) | -16% | -12% |
| COc1ccc(NC(=O)/C=N/O)cc1 | -17% | 0% |

The list goes on:
SMILES | VACV Venus inh | Vaccinia mCherry
CC1CCc2nn(CC(=O)N3CCN(C(=O)c4ccco4)CC3)cc2C1 (centres undefined) | 0% | -10%
O=C(c1c(O)c2ccccc2oc1=O)C1CCC1 | -20% | ·
O=C(CSc1nnc(CNC(=O)C23CC4CC(CC(C4)C2)C3)n1-c1ccccc1)Nc1ccc(F)cc1 | ? | -18%
FC(F)(F)c1cc(-c2cccs2)n[nH]1 | -24% | -7%
COc1ccccc1OCCCn1cc(C#N)c2ccccc21 | -16% | ·
CN1C(N)=NC(=O)/C1=C/c1ccc(OC(F)(F)F)cc1 | -12% | -30%
O=C(COc1ccc2ccc(=O)oc2c1)N1CCN(C(=O)C2COc3ccccc3O2)CC1 (centres undefined) | -8% | -14%
Cc1nc2cccc(C(=O)Oc3ccc([N+](=O)[O-])cc3)c2o1 | -7% | -5%
CN(C(=O)COC(=O)c1cc(S(=O)(=O)N2CCOCC2)c(Cl)cc1Cl)C1CCS(=O)(=O)C1 (centres undefined) | 9% | i
O=C(O)CCCNC(=O)c1cccc(C(=O)NCCCC(=O)O)n1 | -3% | i
CN(C)Cc1ccccc1-c1nccc(NCc2cccs2)n1 | 6% | -7%
Cn1c(=O)c2c(nc(-n3ccnc3)n2Cc2ccccc2)n(C)c1=O | -7% | -9%
O=CNc1cc(-c2ccccc2)cn2c(-c3ccc(F)c(Cl)c3)cnc12 | 1% | 13%
CCC1(CC)NC(=O)N(CC(=O)OCC(=O)c2cc(C)c(C)cc2C)C1=O | -12% | i
CCc1ccc(NC(=O)CC2C(=O)N(c3ccc(C)cc3)C(=O)N2C2CCCC2)cc1 (centres undefined) | -3% | -25%
COc1cc(C(c2c(O)c3ccccc3oc2=O)c2c(C)n(C)n(-c3ccccc3)c2=O)ccc1OCC(=O)O (centres undefined) | -10% | -18%
Cc1ccc(C(=O)n2nc(C)c(S(=O)(=O)N3CCOCC3)c2C)cc1 | 2% | i
CS(=O)(=O)c1ccc(C(=O)OCC(=O)NC(=O)C2COc3ccccc3O2)cc1[N+](=O)[O-] (centres undefined) | -16% | -28%
N#CC1=C(N)OC2=C(CN(Cc3ccccc3)C/C2=C\c2cccnc2)C1c1cccnc1 (centres undefined) | -8% | ·
CCOC(=O)c1cnc2ccc(Cl)cc2c1N1CCN(C)CC1 | -13% | -2%
Cc1ccc(NC(=S)NCCSc2ccc(Cl)cc2)c(C)c1 | -13% | -3%
O=c1c2cc3ccccc3nc2ncn1CCc1ccc(Cl)cc1 | -6% | 1%
O=S(=O)(c1ccccc1)n1nc(-c2ccco2)nc1NCc1ccccc1 | -6% | -6%
CCCCOc1ccc(C(C)(O)CCN2CCOCC2)cc1 (centres undefined) | -25% | ·
O=C1[C@H]2[C@@H](c3ccccc3)N[C@]3(CCCN(Cc4ccc(Br)cc4)C3=O)[C@H]2C(=O)N1Cc1ccccc1 | ? | -28%
CCC(C)[C@H]1CN=C(N)N1CCc1cc(C(F)(F)F)cc(C(F)(F)F)c1 (some centres undefined) | ? | ?
Cc1cc(C)cc(NC(=O)CN2C(=O)COc3ccc(S(=O)(=O)Nc4ccccc4)cc32)c1 | -3% | -16%
CC(=O)Nc1ccc(SCC(=O)c2ccc(Br)s2)cc1 | -5% | -5%
CCOc1ccc(/C=N/OCC(=O)NC(c2ccccc2)c2ccccc2)cc1 | ? | ?
Cc1ccc(CNC(=O)CN2CCN(c3ccc(F)cc3)CC2)cc1 | -9% | -17%
O=C(NC(=S)Nc1cccnc1Cl)c1ccc(Cl)cc1 | -5% | i
O=C(c1ccccc1)C1N=NCC1c1ccc(Cl)cc1 (centres undefined) | -7% | -16%
Cc1cc(C)nc(N/N=C/c2ccccc2OCc2cccc(Br)c2)n1 | -24% | -25%
O=C(CC(C(=O)O)c1c[nH]c2ccccc12)c1ccccc1 (centres undefined) | -2% | -14%
CC1(NC(=O)c2ccccc2)CCN(CCc2cccs2)C1=O (centres undefined) | -15% | i
CCN(CC)C(=O)c1ccc(NC(=O)c2cccc(C(F)(F)F)c2)cc1 | -25% | -14%
CC(NC(=O)C(=O)c1cn(CC(=O)N2CCCC2)c2ccccc12)c1ccccc1 (centres undefined) | -5% | 2%
CN(CC(=O)Nc1ccc(F)cc1)C(=O)c1cccc(S(=O)(=O)N2CCN(c3ccccc3)CC2)c1 | -25% | -26%
CN(C)C(=S)SCC(=O)Nc1ccc(Cl)cc1Cl | -9% | i
CC1CCN(C(=O)Cn2c(=O)n(CCCC(=O)NCc3ccco3)c(=O)c3sccc32)CC1 | -1% | -12%
Cc1ccccc1CNC(=O)C(=O)NCCC1CCCCN1S(=O)(=O)c1ccccc1 (centres undefined) | -21% | ?
Cc1ccc(-n2nnnc2SCC(=O)N2CC(=O)Nc3ccccc32)cc1 | -14% | ·
Cc1sc2nc(CN3CCCC3)nc(N3CCN(C(=O)c4ccco4)CC3)c2c1C | -13% | i
Cc1cc(=O)cc(C)n1-c1ccc2c(c1)nc(C)n2-c1ccccc1 | ? | ?
CCc1ccc2c(c1)cc(CN(Cc1ccco1)C(C)=O)c1nnnn12 | -7% | -3%
COc1ccc(CNc2ncnc3cc(OC)c(OC)cc23)cc1 | -13% | -22%
O=C1CC(=O)N(Cc2cccs2)C(=O)N1 | -1% | i
COc1cc(C(=O)NC2CC3CCCC(C2)N3C2CC2)cc(OC)c1OC (centres undefined) | -17% | i
CSc1nc(N)n2nc(-c3ccc(Cl)cc3)cc2n1 | -13% | -23%
Cc1cc(C)n(-c2cccc(CN3CCC(CO)(Cc4ccccc4)CC3)c2)n1 | -3% | ?
